MARV entry inh – blocks Marburg virus binding to or entry into cells; 300,000 tested, 1.8% active; Potency, µM (titrated, usually from 37.8 µM), for the others: at the highest dose activity change, negative = inhibition, actives largely listed as inhibitors; Marburg virus pseudotyped entry inhibition, cell reporter; control for the full effect not named in the record; about a third of the inactives were read at about 46 µM; active = well fitted inhibition curve with a large enough effect; inconclusive = small, poorly fitted or top-dose-only effect, or effect the other way; inactive = flat fitted curve, though single readings scatter; tested in HEK293 cells; about a fifth of its hits are not listed in these tables; note: % is set by controls: 0 for no effect and ±100 for the full control effect; luciferase read-out
SARS PLP yeast – inhibitors of SARS-CoV papain-like protease in yeast; Potency, µM (titrated, usually from 32.9 µM), without a hit: at the top dose activity, positive = growth rescue; 330,000 tested, 0.19% active; S. cerevisiae expressing SARS-CoV PLpro, growth rescue; control for the full effect not named in the record; AID 485353; active means well fitted rising curve with a large enough effect; inconclusive means small, poorly fitted or top-dose-only effect; inactive means no such curve, though single readings can be large or run the other way; note: 0% is about no effect; nearly all actives have a fitted effect of over 55% in size; growth read by luminescence after 48 h
NS1 inh – blocks influenza NS1 protein function; AID 2326; S. cerevisiae slowed by influenza A NS1, growth recovery by OD600; 270,000 tested, 0.4% active; Potency, µM (series often up to 46.1 µM), without a hit: at the top dose activity, positive = more growth; active means well fitted rising curve with a large enough effect; inconclusive means small, poorly fitted or top-dose-only effect; inactive means no such curve, though single readings can be large or run the other way; note: nearly all actives have a fitted effect of over 50% in size
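Growth recovery, yeast-based: influenza A NS1 expressed in S. cerevisiae causes slow growth, and suppressors are detected by OD600. The parent strain without NS1 is used as positive control.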
2A StopGo – lowers the luciferase signal of an FMDV 2A StopGo reporter; human cells with a luciferase reporter of 2A StopGo recoding; control for the full effect not named in the record; Potency, µM (titrated, usually from 57.9 µM), for the others: top-dose signal change, negative = less light; 410,000 tested, 1.2% active; AID 1159524; active = well fitted falling curve with a large enough effect; inconclusive = small, poorly fitted or top-dose-only effect; inactive = no such curve, though single readings can be large or run the other way; tested in HEK293T cells; note: % is set by controls: 0 for no effect and ±100 for the full control effect; nearly all actives have a fitted effect of over 45% in size; luciferase light after 4 h
Lassa entry inh – blocks Lassa virus binding to or entry into cells; Lassa virus pseudotype entry inhibition, cell reporter; control for the full effect not named in the record; Potency, µM (doses to about 37.9 µM), for inactives: at the top dose activity change, negative = inhibition, usual class: inhibitors; 300,000 tested, 1.2% active; AID 540256; active means well fitted inhibition curve with a large enough effect; inconclusive means small, poorly fitted or top-dose-only effect, or effect the other way; inactive means flat fitted curve, though single readings scatter; tested in HEK293 cells; note: % is set by controls: 0 for no effect and ±100 for the full control effect; nearly all actives have a fitted effect of over 50% in size; luciferase read-out
RE007 growth inh – less growth of the S. pombe RE007 Vpr strain; S. pombe RE007 Vpr strain, BacTiter-Glo ATP luminescence, 24 h; control for the full effect not named in the record; Potency, µM (top dose mostly 92.2 µM), without a hit: at the highest dose activity change, negative = less growth; 360,000 tested, 0.21% active; AID 651644; active = well fitted falling curve with a large enough effect; inconclusive = small, poorly fitted or top-dose-only effect; inactive = no such curve, though single readings can be large or run the other way;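 note: % is set by controls: 0 for no effect and ±100 for the full control effect; nearly all actives have a fitted effect of over 50% in size; the assay follows cell death caused by Vpr and the record does not say whether a fall means rescue or toxicity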
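Fission yeast strain RE007, carrying one chromosomally integrated HIV-1 vpr copy, was seeded at OD 0.01 in PMG+AL medium with 23 nL pinned compound. After 24 h at 30 °C and 99% humidity, viability was read by BacTiter-Glo luminescence.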
Cruzain inh noDet – cruzain (T. cruzi) inhibition without detergent; P25779; purified cruzain, Z-FR-AMC fluorescence, no detergent; Potency, µM, for the others: max response, negative = inhibition, most hits filed as inhibitors; 200,000 tested, 2.3% active;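 note: plate controls were enzyme without inhibitor for no effect and buffer without enzyme for full effect; nearly all actives have a fitted effect of over 40% in size; top concentration of the series not given in the record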
Target sequence (P25779 123-467 limits assumed): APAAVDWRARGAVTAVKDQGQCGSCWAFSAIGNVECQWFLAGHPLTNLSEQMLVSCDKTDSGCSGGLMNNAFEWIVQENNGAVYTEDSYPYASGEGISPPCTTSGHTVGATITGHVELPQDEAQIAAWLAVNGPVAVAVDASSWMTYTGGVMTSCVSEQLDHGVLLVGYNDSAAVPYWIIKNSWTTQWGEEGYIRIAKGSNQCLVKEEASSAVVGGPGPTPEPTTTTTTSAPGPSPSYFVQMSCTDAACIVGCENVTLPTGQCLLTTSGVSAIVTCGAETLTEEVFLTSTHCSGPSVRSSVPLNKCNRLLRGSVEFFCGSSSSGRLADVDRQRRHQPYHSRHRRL
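Detergent-free condition (0.00005% Triton X-100) in acetate buffer pH 5.5 with DTT. 1.5 nM enzyme and compound were pre-mixed 15 min, then 2 uM Z-FR-AMC substrate added; reaction progress from fluorescence change between first and third reads (60 s).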
Cruzain inh Det – inhibitors of Trypanosoma cruzi cruzain with detergent; P25779; purified cruzain, Z-FR-AMC fluorescence, 0.01% Triton; Potency, µM, for the others: max response, negative = inhibition, most hits filed as inhibitors; 200,000 tested, 0.43% active; AID 1478;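 note: plate controls were neutral wells for no effect and buffer without enzyme for full effect; nearly all actives have a fitted effect of over 40% in size; top concentration of the series not given in the record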
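Enzyme 1.5 nM, Z-FR-AMC 2 uM, NaOAc 100 mM pH 5.5, DTT 5 mM, Triton X-100 0.01%; 15 min RT compound preincubation; kinetic ex360/em450, 60 s delta.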
* marks the source's active call; other numbers are inactive results; ? = inconclusive; . = not tested or not shown; & = joins results of further samples; [ ] = dose if it differs, or a comment. Unless noted, calls come from the whole dose curve; as a rule, active = well fitted curve in the direction sought with a large enough effect; inconclusive = small, poorly fitted or top-dose-only effect, or another doubt; inactive = no such curve, though single readings can be large; an effect the other way counts as inactive or inconclusive. Potency is the fitted concentration of half-maximal effect.

SMILES	MARV entry inh	SARS PLP yeast	NS1 inh	2A StopGo	Lassa entry inh	RE007 growth inh	Cruzain inh noDet	Cruzain inh Det
CCOC(=O)C1CCN(S(=O)(=O)c2ccc(-c3nc4ccccc4s3)s2)CC1	?	-3%	-9%	19%	-4%	-16%	-14%	-3.8%
COc1ccccc1NC(=O)c1ccc2c(c1)nnn2C	.	0%	3%	18%	.	-11%	.	.
CN(C)c1ccc(CNC(=O)c2cc(S(=O)(=O)N3CCCC3)cn2C)cc1	.	-3%	13%	-17%	.	9%	.	.
Cc1ccc(-c2nc(-c3cccnc3)no2)c(C)c1	?	-5%	-67%	-5%	-10%	-8%	6%	-5.6%
COc1ccc2nc(N=NC3=C(O)CC(C)(C)CC3=O)sc2c1	13µM*	19%	-8%	12%	15µM*	-28%	.	.
COc1cc(/C=C/C(=O)c2ccc(C)cc2)ccc1OCC#N	?	12%	-46%	?	10µM*	-24%	3%	-10%
COc1ccc(NC(=S)N(CCc2ccc(OC)c(OC)c2)Cc2ccccn2)cc1	-1%[46.1 µM]	-2%	.	9%	-2%	-8%	.	.
Cc1cc(=O)oc2ccc(OCC(=O)N3CCc4ccccc43)cc12	-21%&-21%	1%	11%	-16%	2%	-9%	1%	-2.1%
CCOc1ccc(NC(=S)Nc2cc(C)[nH]n2)cc1	-8%[46.1 µM]	-1%	0%	56%[activator]	-4%	-10%	.	.
CSc1sc(-c2nnc(SCC(=O)Nc3ccc(Cl)cc3)n2C)c2c1C=CCC2	.	0%	4%	-28%	.	1%	.	.
O=C(CS(=O)(=O)c1cccc2nsnc12)N1CCN(c2ccc(F)cc2)CC1	.	.	.	-7%	-1%[46.1 µM]	.	-1%	-2.7%
CCN1CCN(C(=O)Nc2cc(Cl)ccc2OC)CC1	17%[46.1 µM]	0%	-2%	-18%	14%	-10%	.	.
Cc1cc(C)c(C)c(S(=O)(=O)NCC(=O)Nc2ccccc2F)c1C	.	-1%	-23%	30%[activator]	.	-5%	.	.
C/C(=N\NC1=N[C@H]2CS(=O)(=O)C[C@H]2S1)c1ccccc1	12%[46.1 µM]	2%	-1%	1%	-10%	0%	.	.
Cc1ccc(C)c(Cn2c(=O)n(CCC(=O)NCc3ccco3)c(=O)c3ccccc32)c1	?	0%	18%	-10%	5%	-1%	-28%	3.3%
CN(C)c1cccc(C(=O)OC(C(=O)Nc2ccc(Cl)cc2C(F)(F)F)c2ccccc2)c1 (stereo not given)	?	-29%	?	-24%	?	1%	?	-11%
Cc1ccc(S(=O)(=O)N2C(=O)CCC2C(=O)O/N=C(\N)c2ccccc2)cc1 (stereo not given)	?	-8%	-18%	-6%	11%	-2%	.	.
O=C(c1ccc(Cl)c(Cl)c1)N1CCOCC1	-2%[46.1 µM]	2%	8%	-2%	12%	-6%	0%	-1.6%
NC(=O)c1ccc(NCCc2ccccc2)c([N+](=O)[O-])c1	.	0%	-1%	14%	.	-1%	.	.
Cc1ccc(NC(=O)c2sc3nc(-c4ccc(F)cc4)ccc3c2N)cc1F	?	.	.	21%	23%[46.1 µM]	.	?	-23%
O=C(CSc1ccc(Cl)cc1)Nc1ncccn1	21%	-4%	21%	-9%	9%	6%	-11%	0.6%
CN(C)S(=O)(=O)c1ccc(NC(=O)N2CCN(c3cccc(C(F)(F)F)c3)CC2)cc1	?	-4%	5%	28µM*	?	0%	10%	-0.6%
Cc1ccc(-n2nc(-c3cccnc3)cc2C(=O)N2CCOCC2)c(C)c1	23%[46.1 µM]	2%	4%	0%	?	12%	2%	-1.9%
FC(F)Oc1ccc(-c2c[n+]3c(n2-c2ccccc2)CCCCC3)cc1	.	0%	5%	-22%	.	8%	.	.
O=C(c1cccc(COc2ccc(Cl)cc2Cl)c1)N1CCN(c2ccccn2)CC1	?	.	-110%	.	-23%	-29%	?	1.7%
O=C(Nc1oc2ccc(Cl)cc2c(=O)c1-c1ccc(F)cc1)c1ccco1	-1%[46.1 µM]	-5%	-19%	-17%	11%[46.1 µM]	-9%	.	.
CC(=O)N1N=C2/C(=C/c3ccccc3)CCCC2C1c1ccccc1 (stereo not given)	-16%[46.1 µM]	-1%	0%	?	-16%	22%	.	.
O=C(Nc1ccc(F)cc1)c1oc2ccccc2c1NC(=O)C1CCCCC1	?	.	.	-19%	-4%[46.1 µM]	.	4%	-9.9%
COc1ccc(N(C(=O)c2snc(C(N)=O)c2N)C(C(=O)NC2CCCC2)c2ccc(F)cc2)c(OC)c1 (stereo not given)	?	0%	9%	-6%	-25%[46.1 µM]	16%	.	.
Cn1c(NCC(O)c2ccccc2)nc2c1c(=O)n(Cc1ccc(Cl)cc1)c(=O)n2C (stereo not given)	-7%&-7%	-2%	-7%	-29%	-17%	-1%	24%	-3.2%
O=C(CC12CC3CC(CC(C3)C1)C2)Nc1nncs1	-16%[46.1 µM]	5%	-3%	-28%	-5%[46.1 µM]	15%	.	.
Cc1ccc2oc(-c3ccc(NC(=O)c4oc5ccc(Cl)cc5c4C)cc3)nc2c1	.	.	.	-18%	4%[46.1 µM]	.	0%	-2.0%
CCOC(=O)C1=C(COC(=O)/C=C/c2cc(OC)c(OC)c(OC)c2)NC(=O)NC1C (stereo not given)	-27%	-3%	9%	?	-17%	3%	.	.
CCOC(=O)c1ccc(-n2c(C)nc3c(cnn3-c3ccccc3C)c2=O)cc1	-1%	14%	-14%	-2%	.	-1%	-4%	1.1%
CCN(CC)C(=O)C(C)OC(=O)COc1ccc(Cl)cc1Cl (stereo not given)	6%	-7%	-12%	-27%	0%	.	7%	-0.1%
Cc1cc(-c2cccc(Br)c2)c(C#N)c(N)n1	7%[14.2 µM]	1%	.	3%	6%	0%	.	.
COc1cc(OC)c(NC(=O)c2ccco2)cc1Cl	13%	-8%	-4%	-9%	0%	2%	-8%	3.6%
N=C1c2ccccc2CN1NC(=O)CC12CC3CC(CC(C3)C1)C2	?	-1%	-10%	-5%	-9%	-11%	7%	-1.6%
COc1ccc(CCn2c(C)c(C(C)=O)c3cc(OC(=O)c4ccco4)ccc32)cc1OC	-1%	-2%	-5%	?	-8%	3%	?	-6.2%
CCN1CCN(C(=O)c2cn(CCOC)c(=O)c3c2c2ccccc2n3C)CC1	5%	3%	5%	-10%	19%	-13%	2%	4.1%
CCOc1ccc(S(=O)(=O)N2CCN(C(=S)NCc3ccco3)CC2)cc1	-17%	-16%	-12%	0%	-14%	12%	-5%	-3.8%
Nc1cc(C(=O)O)ccc1Nc1ccc(F)c(F)c1	6%[46.1 µM]	1%	?	-1%	17%	6%	-2%	1.6%
O=C(CN1C(=O)S/C(=C\c2ccc(O)c([N+](=O)[O-])c2)C1=O)Nc1ccc(N2CCOCC2)cc1	.	-1%	19%	4%	.	4%	.	.
CC(C)c1ccc(S(=O)(=O)N2CCN(C(C)C(=O)N3CCCC3)CC2)cc1 (stereo not given)	18%	-9%	.	-18%	?	-17%	.	.
CCCCCOc1ccc(C(=O)N(Cc2ccco2)C2CCS(=O)(=O)C2)cc1 (stereo not given)	12%	0%	-40%	?	?	-2%	?	4.0%
CCOC(=O)C1Cc2c([nH]c3ccccc23)C(C)N1 (stereo not given)	?	4%	?	-9%	22%	-14%	-1%	-1.9%
Nc1c(C(=O)N2CCCCCC2)oc2ccccc12	.	-3%	3%	24%	.	-20%	.	.
COc1ccc(OC)c(/C=N/NC(=O)CNC(=O)c2ccc(S(=O)(=O)N3CCOCC3)cc2)c1	-4%	-5%	-1%	-8%	?	-15%	-1%	-2.3%
CCOC(=O)C1CCCN(C(=O)C2CCN(c3nnc(C)c4c(C)n(-c5ccccc5)nc34)CC2)C1 (stereo not given)	.	.	.	-2%	8%[46.1 µM]	.	13%	-6.0%
COc1ccc(-c2cc(C)no2)cc1S(=O)(=O)N1CCc2ccccc21	.	.	.	10%	5%[46.1 µM]	.	-13%	0.1%

Molecules above that have a Cl atom:
SMILES	MARV entry inh	SARS PLP yeast	NS1 inh	2A StopGo	Lassa entry inh	RE007 growth inh	Cruzain inh noDet	Cruzain inh Det
CSc1sc(-c2nnc(SCC(=O)Nc3ccc(Cl)cc3)n2C)c2c1C=CCC2	.	0%	4%	-28%	.	1%	.	.
CCN1CCN(C(=O)Nc2cc(Cl)ccc2OC)CC1	17%[46.1 µM]	0%	-2%	-18%	14%	-10%	.	.
CN(C)c1cccc(C(=O)OC(C(=O)Nc2ccc(Cl)cc2C(F)(F)F)c2ccccc2)c1 (stereo not given)	?	-29%	?	-24%	?	1%	?	-11%
O=C(c1ccc(Cl)c(Cl)c1)N1CCOCC1	-2%[46.1 µM]	2%	8%	-2%	12%	-6%	0%	-1.6%
O=C(CSc1ccc(Cl)cc1)Nc1ncccn1	21%	-4%	21%	-9%	9%	6%	-11%	0.6%
O=C(c1cccc(COc2ccc(Cl)cc2Cl)c1)N1CCN(c2ccccn2)CC1	?	.	-110%	.	-23%	-29%	?	1.7%
O=C(Nc1oc2ccc(Cl)cc2c(=O)c1-c1ccc(F)cc1)c1ccco1	-1%[46.1 µM]	-5%	-19%	-17%	11%[46.1 µM]	-9%	.	.
Cn1c(NCC(O)c2ccccc2)nc2c1c(=O)n(Cc1ccc(Cl)cc1)c(=O)n2C (stereo not given)	-7%&-7%	-2%	-7%	-29%	-17%	-1%	24%	-3.2%
Cc1ccc2oc(-c3ccc(NC(=O)c4oc5ccc(Cl)cc5c4C)cc3)nc2c1	.	.	.	-18%	4%[46.1 µM]	.	0%	-2.0%
CCN(CC)C(=O)C(C)OC(=O)COc1ccc(Cl)cc1Cl (stereo not given)	6%	-7%	-12%	-27%	0%	.	7%	-0.1%
COc1cc(OC)c(NC(=O)c2ccco2)cc1Cl	13%	-8%	-4%	-9%	0%	2%	-8%	3.6%
